Screens as filed in PubChem BioAssay.
Mtb betalactam: beta-lactam sensitization of Mtb H37Rv. M. tuberculosis H37Rv growth with meropenem, percent inhibition; hits of this screen are not shown here. inhibition, % at 25 µM. hit rate 0.27% among 330,000. AID 434955;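 active = about 74% or more and at least 40 points above the plate without the antibiotic, then above 30% in a dose series; inconclusive = first-round hits that could not be retested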;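 also: growth measured after seven days incubation then overnight dye step; 0% = bacteria only wells and 100% = bacteria with antibiotic; twin plates without the antibiotic show which effects depend on it; some results filed as inactive read as strong as hits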
Numbers without * were called inactive; ? = inconclusive. These rows are one share of the data; rates above refer to the full screens.

SMILES	Mtb betalactam
COc1ccc(CCN(C)C(=O)CCNS(=O)(=O)c2ccccc2C(F)(F)F)cc1OC	-1
CSCCC(NC(=O)COc1ccccc1)C(=O)N(C)CC(=O)Nc1ccc(Cl)cc1 (stereo not given)	-8
O=C(CN1c2cccc3cccc(c23)S1(=O)=O)Nc1ccccc1Br	3
CN1[C@H]2CC[C@@H]1C(C(=O)N1CCOCC1)=C(O)C2	1
Cc1ccccc1OCC(=O)NNC(=O)c1ccoc1C	4
CCN1C(=O)c2cccc3c(S(=O)(=O)N4CCNCC4)ccc1c23	-1
CSc1ccc(S(=O)(=O)N2CCC(C(=O)NCc3ccccn3)CC2)cc1	-10
N#Cc1ccccc1S(=O)(=O)N1CCN(C(=O)C2CCCCC2)CC1	-6
CCCCC1C(=O)N(c2ccccc2)N(c2ccc(O)cc2)C1=O (stereo not given)	38
CC(NC(=S)NC(=O)c1cccs1)c1ccccc1 (stereo not given)	1
Cc1cc(NC(=O)CSCC(=O)OCc2nnc(-c3ccc(F)cc3)o2)no1	7
Cc1cccc(C(=O)N[C@H](C(=O)Nc2ccc(C)c(S(=O)(=O)N3CCOCC3)c2)C(C)C)c1	-2
COC(=O)[C@]1(Cc2ccccc2)N[C@H](CN(C)C(=O)Nc2ccc(C)cc2)[C@@H]2C(=O)N(C)C(=O)[C@@H]21	-2
Cc1nn(-c2cccc(Cl)c2)nc1C(=O)Nc1cccc(C(=O)NC2CC2)c1	57
Cc1csc(=O)n1CC(=O)Nc1ccc(Cl)cc1F	3
CC[C@@]1(c2ccccc2OC)ON(c2ccccc2C(F)(F)F)C1=O	12
C[C@@H]1COC(=O)[C@@H](CC(=O)OC(C)(C)C)C/C=C\C[C@@H](CC(=O)N(CCO)Cc2ccccc2)C(=O)N1	-7
Nc1nc(N)nc(-c2ccc(Cl)c(Cl)c2)n1	7
CC(OC(=O)c1cnc(Cl)c(Cl)c1)C(=O)NCc1ccccc1 (stereo not given)	1
O=C(CNC(=O)c1ccc(Cl)cc1Cl)OCCOc1ccccc1F	18
COc1ccc([C@H]2CC(=O)C=C(c3ccc4c(c3)OCO4)C2)cc1OC	63
COc1ccc(N(CCOc2ccccc2)S(=O)(=O)c2ccccc2)cc1	3
COc1ccc(/C=C/C(=O)OCC(=O)Nc2ncc(Cl)cc2Cl)cc1	3
CC(Oc1ccccc1F)c1nnc(SCC(=O)N(c2ccccc2)C2CCS(=O)(=O)C2)o1 (stereo not given)	-3
COC(=O)C1=C(c2ccc(F)cc2OCc2ccccc2)C[C@@H]2CC[C@H]1N2C(=O)NCCCc1ccccc1	2

Carrying on:
SMILES	Mtb betalactam
O=C(Nc1ccccc1)OCC(CN1CCCCC1)OC(=O)Nc1ccccc1 (stereo not given)	-2
CC(Oc1cccc(Cl)c1)C(=O)NNC(=O)c1cccnc1 (stereo not given)	-3
CN(c1ccccc1)S(=O)(=O)c1cccc(NC(=O)Cc2n[nH]c(=O)c3ccccc23)c1	10
Cc1cc(OCC(=O)OCC(=O)N(C)Cc2ccccc2C)ccc1Cl	54
O=C(NCc1cccc(Cl)c1)c1cccc(S(=O)(=O)N2CCCCC2)c1	-1
CC(Sc1nnc(C(C)Oc2ccccc2F)o1)C(=O)NCc1ccc2c(c1)OCO2 (stereo not given)	2
C=CCN(CC(=O)Nc1cccnc1)S(=O)(=O)c1ccc(Cl)cc1	0
Cc1ccc(CNC(=O)c2cc(S(=O)(=O)N3CCCCC3)ccc2N2CCOCC2)cc1	1
Cc1cccc(C(=O)NCC(=O)OCC(=O)N(C)CC(=O)Nc2ccccc2Cl)c1	0
CCOC(=O)C1CCN(C(=O)COC(=O)CSc2ccccc2C)CC1	5
COc1cccc(NC(=O)C(C)(C)C)c1	-2
O=C(CSc1nc2ccccc2c(=O)n1-c1ccccc1F)N1CCOCC1	-4
O=C(OCc1c(-c2ccccc2)ncc2ccccc12)c1ccc(C(F)(F)F)cc1	10
O=C(COC(=O)c1cccnc1Cl)NC1CCCc2ccccc21 (stereo not given)	1
COc1ccccc1CNC(=O)COC(=O)c1ccc([N+](=O)[O-])o1	54
C[C@H](CO)N1C[C@H](C)[C@@H](CN(C)CC2CCCCC2)Oc2ccc(NS(C)(=O)=O)cc2C1=O	-4
COC(=O)C1=C(c2ccc(-c3ccccc3)c(F)c2)C[C@@H]2CC[C@H]1N2C(=O)NCCOc1ccccc1	-4
O=C(CN1C(=O)NC2(CCCCCC2)C1=O)Nc1ccc(Cl)cc1Cl	6
COc1ccccc1CN(C)C(=O)CSCC(=O)Nc1ccccc1F	-6
COc1ccccc1-n1c(SCC(=O)Nc2cccc(C(=O)O)c2)nnc1-c1ccccc1C	3
CC1CCN(C(=O)Cn2cc(C(F)(F)F)ccc2=O)c2ccccc2S1 (stereo not given)	5
O=C(CC1CC2CCC1C2)N1CCN(S(=O)(=O)c2ccccc2C(F)(F)F)CC1 (stereo not given)	2
CCN(CC)N=O	-1
COc1ccc(-c2c(-c3cc(OC)cc(OC)c3)n(C)c3ccc(-c4cnc(N)nc4)cc23)cc1	4
CCN(c1ccccc1)S(=O)(=O)c1ccc(C(=O)N2CCN(c3ccccc3)CC2)cc1	-16

Next part.
SMILES	Mtb betalactam
NC(=O)c1nsc(C(=O)N(CCCN2CCOCC2)C(C(=O)NC2CCCCC2)c2ccc(Cl)cc2)c1N (stereo not given)	-4
O=C(NNC(=O)c1ccc(Br)s1)c1ccc(F)c(S(=O)(=O)N2CCOCC2)c1	0
COc1cc(OC)cc(-c2c(C#Cc3ccsc3)c3cc(-c4cnc(OC)nc4)ccc3n2C)c1	-3
CN(C(=O)COC(=O)CNC(=O)C1CCCCC1)c1ccccc1	0
CCCN(CC(=O)Nc1cc(Cl)ccc1Cl)C(=O)CN1C(=O)C2CCCCC2C1=O (stereo not given)	-5
CSc1ccc(/C=C/C(=O)OCC(=O)NC2CC2)cc1	1
FC(F)(F)c1ccccc1-n1ccnc1	-1
O=C(NCc1cccnc1)/C(=C/c1ccc(Cl)cc1)NC(=O)c1ccccc1	-19
CC(C)(C)c1ccc(C(=O)Nc2cccnc2)cc1	-3
CS(=O)(=O)c1cccc(C(=O)OCC(=O)NCc2cccs2)c1	0
O=C(NCCCN1CCCC1=O)c1cc2nc(-c3ccco3)cc(C(F)(F)F)n2n1	1
CCOc1ccc(OCCC(=O)OCC(=O)NCCc2ccc(S(N)(=O)=O)cc2)cc1	5
CCN(CC(=O)Nc1ccccc1OC)C(=O)CC1CC2CCC1C2 (stereo not given)	6
COc1cccc(CNC(=O)COC(=O)CCc2cc(OC)c(OC)c(OC)c2)c1	-3
Nc1cc(S(=O)(=O)N2CCOCC2)ccc1N1CCCCC1	70
CCN1CCN(C(=O)N[C@@H](C(=O)N[C@@H]2C(=O)N3C(C(=O)O)=C(CSc4nnnn4C)CS[C@H]23)c2ccc(O)cc2)C(=O)C1=O	-8
COc1ccc2cc(C(C)C(=O)O)ccc2c1 (stereo not given)	2
Cc1cc(NC(=O)c2ccc(C)o2)no1	?
COc1cccc(NC(=O)CN2C(=O)NC(C)(C3CC3)C2=O)c1 (stereo not given)	4
O=c1[nH]c2ccccc2nc1Cc1ccc([N+](=O)[O-])cc1	-2
CCCCN1CC(=O)N2[C@H]3c4cc(C)ccc4OC[C@@H]3[C@H](c3ccccc3)[C@]2(C)C1=O	0
C#CCOCCOCCOCCNc1nc(N2CCOCC2)nc(N2CCN(C(=O)[C@H](CC(N)=O)n3cc(C(N)[C@@H](C)CC)nn3)CC2)n1 (stereo not given in full)	-6
CC1(c2ccc3ccccc3c2)NC(=O)N(CC(=O)Nc2ncccc2O)C1=O (stereo not given)	-2
COc1ccc(F)cc1S(=O)(=O)n1nc(C)cc1C	-17
COc1ccc(CC(=O)Nc2cccc(S(=O)(=O)N3CCOCC3)c2)cc1OC	-4

Arranged by number of heavy atoms (high to low): 16 of the compounds above
SMILES	Mtb betalactam
C#CCOCCOCCOCCNc1nc(N2CCOCC2)nc(N2CCN(C(=O)[C@H](CC(N)=O)n3cc(C(N)[C@@H](C)CC)nn3)CC2)n1 (stereo not given in full)	-6
CCN1CCN(C(=O)N[C@@H](C(=O)N[C@@H]2C(=O)N3C(C(=O)O)=C(CSc4nnnn4C)CS[C@H]23)c2ccc(O)cc2)C(=O)C1=O	-8
NC(=O)c1nsc(C(=O)N(CCCN2CCOCC2)C(C(=O)NC2CCCCC2)c2ccc(Cl)cc2)c1N (stereo not given)	-4
COc1cc(OC)cc(-c2c(C#Cc3ccsc3)c3cc(-c4cnc(OC)nc4)ccc3n2C)c1	-3
CCOc1ccc(OCCC(=O)OCC(=O)NCCc2ccc(S(N)(=O)=O)cc2)cc1	5
COc1cccc(CNC(=O)COC(=O)CCc2cc(OC)c(OC)c(OC)c2)c1	-3
CC1(c2ccc3ccccc3c2)NC(=O)N(CC(=O)Nc2ncccc2O)C1=O (stereo not given)	-2
O=C(NNC(=O)c1ccc(Br)s1)c1ccc(F)c(S(=O)(=O)N2CCOCC2)c1	0
CCN(CC(=O)Nc1ccccc1OC)C(=O)CC1CC2CCC1C2 (stereo not given)	6
COc1cccc(NC(=O)CN2C(=O)NC(C)(C3CC3)C2=O)c1 (stereo not given)	4
Nc1cc(S(=O)(=O)N2CCOCC2)ccc1N1CCCCC1	70
O=c1[nH]c2ccccc2nc1Cc1ccc([N+](=O)[O-])cc1	-2
CSc1ccc(/C=C/C(=O)OCC(=O)NC2CC2)cc1	1
CC(C)(C)c1ccc(C(=O)Nc2cccnc2)cc1	-3
COc1ccc2cc(C(C)C(=O)O)ccc2c1 (stereo not given)	2
Cc1cc(NC(=O)c2ccc(C)o2)no1	?

Next part:
SMILES	Mtb betalactam
COc1cccc(OCCNS(=O)(=O)c2ccccc2[N+](=O)[O-])c1	-3
COC(=O)C1=C(c2ccc(OCc3ccccc3)cc2)C[C@@H]2CC[C@H]1N2C(=O)NCc1ccc(OC)c(OC)c1	8
C#CC(=O)CCC1CCCN1C(=O)OC(C)(C)C (stereo not given)	1
CCC[C@@H](CN1CCC[C@H]1CN1C(N)=NC[C@@H]1Cc1ccccc1)N1C[C@@H]([C@H](C)CC)N(CCc2ccc(Cl)c(Cl)c2)C1=N	100
Cc1ccc(OCC(=O)OCC(=O)NC2CCCC2)cc1C	-2
CCCN(CC(=O)Nc1cc(Cl)ccc1Cl)C(=O)c1ccccn1	-4
Cc1cc(NS(=O)(=O)c2ccc(NC(=O)c3ccccc3F)cc2)no1	3
C=CC(=O)Nc1ccc(CN2C(=O)N(c3c(Cl)c(OC)cc(OC)c3Cl)Cc3cnc(NCCCCN(CC)CC)nc32)cc1	86
COc1cccc(C#Cc2c(C=O)n(C)c3ccccc23)c1	-1
COc1ccc(S(=O)(=O)Nc2cc(Sc3ncn[nH]3)c(O)cc2C)cc1	-4
COc1ccc(C(=O)O)cc1S(=O)(=O)NC1CCN(Cc2ccccc2)CC1	1
O=C(O)c1ccc(/C=N/NC(=O)c2cc3ccccc3cc2O)cc1	2
COc1ccccc1OC(C)C(=O)N1CCC(Cc2ccccc2)CC1 (stereo not given)	-6
O=C(OCc1nnc(-c2cccs2)o1)C1=NN(c2ccccc2)C(=O)CC1	0
CN(C)c1cccc(C(=O)NNC(=O)CN2C(=O)C3CC=CCC3C2=O)c1 (stereo not given)	-3
COc1cc(C=NNC(=O)c2cccnc2)ccc1OC(=O)c1ccccc1F	-1
C=CC[C@@H](CC(=O)NCCO)C(=O)NC[C@H](OC(=O)[C@@H](CC=C)Cc1ccc(F)cc1)c1ccccc1	2
Cc1cc(C)nc(SCC(=O)NN=Cc2ccc(C)o2)n1	-5
CSc1nc(-c2ccccc2)nc(C(C)C)n1	0
CN1CCN(S(=O)(=O)c2ccc(C#N)cc2)C(c2ccccc2)C1 (stereo not given)	5
CN(C)C1=NCCN1CC1CCCCC1	-1
C/C(=N\OCC(=O)OCC(=O)Nc1cc(S(C)(=O)=O)ccc1Cl)c1ccc2c(c1)OCO2	4
COC(=O)c1ccc(OC)c(NS(=O)(=O)c2ccc(-n3cnnn3)cc2)c1	6
Cc1cccc(C)c1NC(=O)CN(C)C(=O)c1cc([N+](=O)[O-])ccc1N1CCOCC1	-7
COc1ccc(CN(C)C(=O)COC(=O)c2cc([N+](=O)[O-])ccc2N2CCCC2)c(OC)c1OC	-3

New compounds follow:
SMILES	Mtb betalactam
COc1ccc(NC(=O)C2CCCN(C(=O)c3ccc(Cl)cc3)C2)cc1Cl (stereo not given)	4
CCOc1ccc(N(CC(=O)NCc2ccc3c(c2)OCO3)C(=O)c2csnn2)cc1	-3
CC1CC(C)CN(C(=O)COC(=O)c2c[nH]c3ccccc23)C1 (stereo not given)	-3
CCN1C(=O)[C@H]2[C@@H](c3ccc(C)cc3)N3C(=O)N(c4cccc(Cl)c4)C(=O)[C@@]3(Cc3ccc(Cl)cc3)[C@H]2C1=O	0
CCOc1ccc(N2CC(C(=O)NCc3ccco3)CC2=O)cc1 (stereo not given)	-3
CC(C)=CCC/C(C)=C/CNC(=O)CC1C[C@H](C(=O)N2CCCCC2)[C@@]2(C)c3[nH]c4ccccc4c3CCN2C1=O (stereo not given in full)	-2
CN(CC1COc2ccccc2O1)C(=O)CSc1ncccn1 (stereo not given)	-2
COc1ccccc1N1CCN(/N=C(\C)c2ccc(O)cc2)CC1	-10
Cc1ccc(-n2c(C)nnc2SCC(=O)N(C)C2CCS(=O)(=O)C2)cc1 (stereo not given)	-5
O=C(COC(=O)c1ccc(Cl)nc1)NCc1ccc(F)cc1	3
CC(OC(=O)c1ccc(S(=O)(=O)N2CCCCC2)cc1)C(=O)Nc1ccc(C(N)=O)cc1 (stereo not given)	4
CN1CCC(OC(=O)c2cc3cc(Br)ccc3oc2=O)CC1	3
COc1ccc(Cl)cc1NC(=O)CN(C)C(=O)C1CC1	3
CC(C)N1CCN(C(=O)c2ccc(NC(=O)c3ccc(Br)o3)cc2)CC1	-6
COc1cc(C#Cc2c(-c3cncn3C)n(C)c3ccc(-c4cc(OC)c(OC)c(OC)c4)cc23)cc(OC)c1	100
